Vero viability: Vero cell cytotoxicity, dose response, cytotoxicity control for Vif-APOBEC3G degradation inhibitor project, Vero cells (AID 1117358). Vero viability, CellTiter-Glo ATP luminescence, 72 h; reference of the scale not given here. viability, % at the top dose, mostly 40 µM; hits show CC50 in µM. 2,300 compounds, 7% hits;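 active = viability down to 80% or less at some dose; inactive = above 80% at all doses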
Numbers without * were called inactive. Only part of the results is shown, so the mix of outcomes need not match the whole.

SMILES	Vero viability
COc1ccc2c(c1)C1CC(C)(NC(=O)C1C(=O)c1ccccc1)O2 (stereo not given)	97%
CC(NC(=O)Nc1ccc(O)cc1)(C(F)(F)F)C(F)(F)F	99%
NC(=O)c1c(NC(=O)c2ccc(S(=O)(=O)N3CCOCC3)cc2)sc2c1CCCCC2	90%
CCC(C)Nc1nc2c(c(=O)[nH]c(=O)n2C)n1CCC(C)C (stereo not given)	91%
O=C(NCc1ccco1)c1sc2cccc(F)c2c1Cl	98%
COc1ccc(-c2cc(C(=O)N/N=C/c3ccc(OC)c(COCC(F)(F)C(F)F)c3)c3ccccc3n2)c(OC)c1	98%
Cc1cccc(C)c1NC(=O)c1ccc(-n2cnnn2)cc1	95%
CCc1nc2oc3cc(OC)ccc3c(=O)c2c(=O)n1Cc1ccco1	94%
O=C(O)CC(C(=O)O)N1C(=O)/C(=C/c2ccc(-c3nc4ccccc4s3)o2)SC1=S (stereo not given)	97%
Nc1ccc(Sc2cc(Cl)nc(N)n2)cc1	94%
CC(C)(C)c1ccc(-c2nnc(SCCC#N)n2C2CCCC2)cc1	>40µM*
O=S(=O)(c1ccc2nc(-c3ccco3)c(-c3ccco3)nc2c1)N1CCOCC1	90%
Cc1cc(S(=O)(=O)N(Cc2ccccn2)Cc2ccco2)ccc1-n1cnnn1	99%
CC(=O)N1CCN(c2ccc(NCc3ccc4c(c3)OCO4)cc2)CC1	90%
CCOc1cccc(CNc2ccc(O)cc2)c1OCc1ccc(Cl)cc1Cl	>40µM*

Copied from the listing, 2 compounds:
SMILES	Vero viability
COc1ccc2c(c1)C1CC(C)(NC(=O)C1C(=O)c1ccccc1)O2 (stereo not given)	97%
CC(NC(=O)Nc1ccc(O)cc1)(C(F)(F)F)C(F)(F)F	99%

Seven records picked at random from the list so far:
SMILES	Vero viability
COc1ccc2c(c1)C1CC(C)(NC(=O)C1C(=O)c1ccccc1)O2 (stereo not given)	97%
O=S(=O)(c1ccc2nc(-c3ccco3)c(-c3ccco3)nc2c1)N1CCOCC1	90%
CCc1nc2oc3cc(OC)ccc3c(=O)c2c(=O)n1Cc1ccco1	94%
Nc1ccc(Sc2cc(Cl)nc(N)n2)cc1	94%
CCC(C)Nc1nc2c(c(=O)[nH]c(=O)n2C)n1CCC(C)C (stereo not given)	91%
CC(=O)N1CCN(c2ccc(NCc3ccc4c(c3)OCO4)cc2)CC1	90%
O=C(O)CC(C(=O)O)N1C(=O)/C(=C/c2ccc(-c3nc4ccccc4s3)o2)SC1=S (stereo not given)	97%

Remaining list, next part.
SMILES	Vero viability
C=CCOC(=O)CN1C(=O)c2ccccc2C1=O	100%
COc1cccc(C2NC(=O)NC(O)(C(F)(F)F)C2C(=O)c2cccnc2)c1OC (stereo not given)	96%
Cc1[nH]c2ccccc2c1C(=O)CN1CCC(C(N)=O)(N2CCCCC2)CC1	95%
COc1ccc(C2CC(=O)Nc3cc(C)c(C)cc32)c(OC)c1OC (stereo not given)	109%
Cn1nnnc1SCC(=O)NCc1ccco1	102%
Cc1cc(C)c(S(=O)(=O)N2CCCCC2)c(C)c1N(C)S(=O)(=O)c1ccc(Cl)cc1	93%
CCCn1nc(Oc2nc(SC)nc(N(C)C)n2)ccc1=O	94%
Cc1[nH]c2ccccc2c1C(=O)CN1C(=O)NC(C)(c2ccc(Cl)cc2Cl)C1=O (stereo not given)	38µM*
C=CCSc1nnc(NC(=O)CSc2nnc(C)s2)s1	97%
CCCS(=O)(=O)N1CCCC(C(=O)NCCCOC(C)C)C1 (stereo not given)	98%
C(=C\c1ccco1)/C=N/n1cnnc1	102%
CC(NC(=O)C1C(=O)N(CCO)C2(C)CC1c1ccccc1O2)c1ccccc1 (stereo not given)	98%
CCCOc1ccccc1C1CC(=O)NC2=C1C(=O)CCC2 (stereo not given)	>40µM*
Cc1cc2cc(C=O)c(Cl)nc2cc1C	93%
Cc1cc(C)cc(-n2nnc(C(=O)NCc3ccco3)c2N)c1	88%

Structures from the list above containing fluorine, in the order listed:
SMILES	Vero viability
CC(NC(=O)Nc1ccc(O)cc1)(C(F)(F)F)C(F)(F)F	99%
O=C(NCc1ccco1)c1sc2cccc(F)c2c1Cl	98%
COc1ccc(-c2cc(C(=O)N/N=C/c3ccc(OC)c(COCC(F)(F)C(F)F)c3)c3ccccc3n2)c(OC)c1	98%
COc1cccc(C2NC(=O)NC(O)(C(F)(F)F)C2C(=O)c2cccnc2)c1OC (stereo not given)	96%

The results go on:
SMILES	Vero viability
Cn1ccnc1SCC(=O)c1ccc(Br)cc1	102%
COc1cc(O)oc1C=Nc1ccccc1	93%
CCN(CC)CCNC(=O)CCn1c(=S)[nH]c2cc3c(cc2c1=O)OCO3	100%
O=C(Cn1cnc2ccccc2c1=O)c1cccs1	103%
c1ccc(SCc2nc3ccccc3[nH]2)cc1	95%
Cc1ccc(S(=O)(=O)N/N=C/c2ccc(OCC(=O)Nc3ccccc3Cl)cc2)cc1	103%
O=[N+]([O-])c1cc(-c2ccc(/C=N/c3nc4ccccn4c3-c3ccco3)o2)ccc1Cl	100%
CC(C(=O)Nc1ccc(F)c(F)c1F)N1CCCCCC1 (stereo not given)	88%
CCc1ccccc1NC(=O)c1cc2ncc(Br)cn2n1	99%
Cc1ccc(-c2nc3s/c(=C\c4ccco4)c(=O)n3n2)cc1	99%
CC(NC(=O)CC1Nc2ccccc2NC1=O)c1ccccc1 (stereo not given)	103%
Cc1ccc2c(Cl)cc(Cl)c(OCC(=O)NCc3ccco3)c2n1	101%
O=C(C/C=N/OCc1c(Cl)cccc1Cl)c1ccc(Cl)cc1	93%
CCOc1ccc(Cl)cc1S(=O)(=O)N1CCN(c2ccc(F)cc2)CC1	87%
CN=c1scc(C)n1/N=C/c1ccc(O)c(O)c1O	101%
O=C(OCc1ccc(Cl)cc1)c1cnccn1	94%
CCC(CC)c1nc2cc(OC)c(OC)cc2c(=O)o1	94%
CN(C)S(=O)(=O)c1ccc(NC(=O)c2cc3ccccc3o2)cc1	>40µM*
COc1cc(NC(=O)c2cccs2)c(OC)cc1NC(=O)CCn1nnc2ccccc21	101%
Cc1cc(C)n(CC(O)CN2c3ccccc3Sc3ccccc32)n1 (stereo not given)	92%
CC/C(=C\C(=O)c1ccncc1)Nc1ccc(O)cc1	90%
Cc1ccc(Cl)cc1N1CCN(C(=O)Cc2cn(C)c3ccccc23)CC1	>40µM*
O=[N+]([O-])c1cc(/C=N\Nc2nccs2)ccc1O	108%
COc1cccc(Cn2nnc(C(=O)NCCc3ccc(Cl)cc3)c2N)c1	94%
Oc1ccc(Cl)cc1-c1cc(-c2ccccc2)n[nH]1	>40µM*
Cc1ccc(S(=O)(=O)N2CCN(C(C(=O)Nc3ccc(F)cc3)c3ccccc3)CC2)cc1 (stereo not given)	100%
COC(=O)c1ccc(-n2nnnc2SCC(=O)Nc2cc(OC)ccc2OC)cc1	99%
CC(C)(C)c1ccc(OCC(=O)NCCN2CCCC2)cc1	93%
COc1ccc(C2CC(c3ccccc3)n3nc(NC(=O)c4cccs4)nc3N2)cc1 (stereo not given)	>40µM*
CCN1CCC(=NNC(=O)CC23CC4CC(CC(C4)C2)C3)CC1	94%
CC(C)OC(=O)/C(=C\C=C\c1ccccc1)NC(=O)c1ccccc1	101%
CCOc1ccc(-c2nnn(CC(=O)c3ccc4c(c3)OCCO4)n2)cc1OCC	99%
CCOc1ccccc1N1C(=O)c2ccc(C(=O)Nc3cccnc3)cc2C1=O	105%
C=CCn1c(SCC(=O)c2cc(C)n(C(C)COC)c2C)nc2sc(C)c(C)c2c1=O (stereo not given)	97%
NCCOc1ccccc1Cc1ccccc1	82%
O=[N+]([O-])c1cc(C(F)(F)F)ccc1N1CCN(S(=O)(=O)c2ccc3ccccc3c2)CC1	87%
CCc1nnc(NC(=O)c2ccc(S(=O)(=O)N(CC(C)C)CC(C)C)cc2)o1	>40µM*
COc1ccc(C2=NO[C@@H]3C(=O)N(c4ccc(C)cc4C)C(=O)[C@H]23)cc1OC	93%
Cc1ccccc1N1CCN(Cc2c[nH]c3ccccc23)CC1	>40µM*
Cc1ccc(CN2C(=O)CCC2C(=O)N2CCN(c3ccc(F)cc3)CC2)cc1 (stereo not given)	105%
CCOC(=O)c1c(NC(=O)Cn2nnc(-c3ccccc3Cl)n2)sc(C)c1C	99%
CCCC(c1nnnn1CC(=O)OCC)N(Cc1cc2c(C)cc(C)cc2[nH]c1=O)C1CCCC1 (stereo not given)	91%
CCOC(=O)CSc1nnc(CNC(=O)c2ccccc2OC)n1-c1ccc(OC)cc1	93%
Cc1ccc(S(=O)(=O)NCCCOC(=O)Nc2ccncc2)cc1	>40µM*
CC1(c2ccccc2)NC(=O)N(CC(=O)Nc2cccc(C#N)c2)C1=O (stereo not given)	90%

In another format: 2 of the compounds above
| Structure | Vero viability |
| --- | --- |
| Cc1ccc(-c2nc3s/c(=C\c4ccco4)c(=O)n3n2)cc1 | 99% |
| COc1cc(O)oc1C=Nc1ccccc1 | 93% |

Following part
SMILES	Vero viability
Cc1c(C(=O)Nc2ccc(Cl)cc2)c2ccccn2c1CCc1ccncc1	105%
C/C(N)=C(/C#N)C(=O)COC(=O)CCSc1ccccc1	99%
O=C(NCCCN1CCOCC1)C1(c2ccccc2)CCCC1	90%
CCCCCCC(=O)N(O)C1CC(=O)N(c2ccc(Br)cc2)C1=O (stereo not given)	>40µM*
Cc1nn(CC(=O)NCc2ccccc2Cl)c(C)c1[N+](=O)[O-]	103%
CC(C(=O)N1CCOCC1)(c1ccccc1)c1ccccc1	99%
CCc1ccccc1N(CC(=O)NCCSCc1ccco1)S(C)(=O)=O	105%
CC(C)Oc1ccc(CNCC2(O)CCOC(C)(C)C2)cc1 (stereo not given)	101%
Cc1ccc(C(=O)N2c3ccc(F)cc3CCC2C)o1 (stereo not given)	92%
CC(=O)C1=C(C)NC(C)=C(C(C)=O)C1c1cccs1	92%
CN1CCN(S(=O)(=O)c2ccc(NC(=O)Nc3cccc(Cl)c3)cc2)CC1	>40µM*
CC(C)OC(=O)c1cccc(C(=O)O)n1	98%
Cc1ccc(CCC(=O)Nc2ccc(S(N)(=O)=O)cc2)o1	94%
CCCCn1nnc(NC(=O)c2ccc(-c3cccc(Cl)c3)o2)n1	104%
Cc1cc(=O)[nH]c2c1c(C)nn2C1CCCC1	89%
O=C(Nc1ccc2nc(-c3ccco3)c(-c3ccco3)nc2c1)N1CCCCCC1	105%
Cc1nc2ccc(NC(=O)Cc3cccs3)cc2s1	95%
COc1ccc(OC)c(C(=O)CSc2nnnn2C)c1	93%
Cc1cc(NC(=O)CSc2nnc(-c3ccoc3C)n2N)no1	99%
COC(=O)c1c(C)[nH]c(C(=O)CSc2ccc(Cl)cc2)c1C	100%
O=S(=O)(NCC1CCCO1)c1cc(Br)c(Br)s1 (stereo not given)	88%
Cc1nc2nc(-c3ccccc3)cn2nc1C	84%
Cc1ccc(S(=O)(=O)N(C)CC(O)Cn2c3ccccc3c3ccccc32)cc1 (stereo not given)	>40µM*
CN(C)C=NC(=O)/C(C#N)=C1\CCc2ccccc2N1	88%
Cc1cc(C)n2nc(C(=O)Nc3cccnc3)nc2n1	94%
Cc1ccc(C(=O)N2CCN(c3ccccc3)CC2)cc1C	103%
COc1ccc(/C=C(/NC(C)=O)C(=O)O)cc1	98%
Nc1ccccc1NC1=CC(=O)CC(c2ccco2)C1 (stereo not given)	109%
COC(=O)/C(=N/Nc1ccccc1C)N1CCCc2ccccc21	89%
CCOC(=O)CSc1ncnc2c1cnn2-c1ccc(C)cc1	103%
CCOC(=O)c1c(NC(=O)C(C)N2CCN(C(=O)c3ccco3)CC2)sc2c1CCCC2 (stereo not given)	22µM*
Cc1ccc(N2C(=O)/C(=C\c3ccco3)SC2=S)cc1	109%
O=C1N(c2ccccc2)C2CS(=O)(=O)CC2N1c1ccc(Cl)c(Cl)c1 (stereo not given)	92%
Cn1c(SCC(=O)N2CCCC2)nc2ccccc2c1=O	95%
CCOC(=O)c1ccc(-n2ncc(C(=O)OCC)c2N)cc1	93%
COCCn1c(SCC(=O)N2CCC(C)CC2)nc2ccccc2c1=O	104%
CC(C)CCNC(=O)Cn1c2c(c(-c3ccccc3Cl)cc1=O)CCC2	94%
CCc1nnc(NC(=O)C(NS(=O)(=O)c2ccc3c(c2)OCCO3)C(C)C)s1 (stereo not given)	100%
CCOC(=O)N1CCC(NC(=O)c2cc(C(=O)NCc3cccc(Cl)c3)ccc2CO)CC1	104%
CCCCNC(=O)c1c(O)c2cccc3c2n(c1=O)CCC3	97%
CCOC(=O)C1=C(C)n2c(s/c(=C/c3cccc([N+](=O)[O-])c3)c2=O)=NC1c1ccc(O)c(OC)c1 (stereo not given)	109%
CN1CCN(c2nc(-c3cccnc3)nc3ccccc23)CC1	98%
COc1cccc(-c2nnc(SCC(=O)N3CCOCC3)o2)c1	102%
O=C(NCc1ccco1)c1cc(-c2cccc(Cl)c2)on1	110%
COc1cc(C2NC(=O)NC(C)=C2C(=O)OCC2CCCO2)ccc1O (stereo not given)	101%
COc1ccc2cc(C3(C)NC(=O)N(CC(=O)Nc4c(C)n(C)n(-c5ccccc5)c4=O)C3=O)ccc2c1 (stereo not given)	105%
COCCNC(C)C(=O)C12CC3CC(CC(C3)C1)C2 (stereo not given)	93%
COc1nc(N(c2ccccc2)c2ccccc2)nc(-n2ccnc2)n1	99%
Cc1c(C(=O)NCc2cccnc2)oc2ccccc12	93%
CCCC(=O)Nc1cccc(-c2nc3ccccc3o2)c1	93%
Cc1ccc(NC(=O)CCC(=O)NNC(=O)COc2cccc3ccccc23)c(C)c1	95%
CCc1c(C)sc(NC(=O)OC)c1C(=O)N1CCCCC1	99%
CCCCNc1nc2ccccc2nc1NS(=O)(=O)c1cccs1	98%
Cc1onc(-c2ccccc2)c1C(=O)NCC1COc2ccccc2O1 (stereo not given)	103%
COC(=O)CN1C(=O)C(O)=C(C(C)=O)C1c1ccc([N+](=O)[O-])cc1 (stereo not given)	94%
CCCn1c(=O)c(-c2ccccc2)c(O)c2ccccc21	93%
Cc1ccc(C(=O)C2C(c3cccs3)NC(=O)NC2(O)C(F)(F)F)cc1 (stereo not given)	97%
COc1ccc2nc(-c3ccco3)c(-c3ccco3)nc2c1	101%
CCc1ccc(NC(=O)COC(=O)CCc2nc3cc(S(=O)(=O)N(CC)CC)ccc3n2C)cc1	101%
Cc1snc(S(=O)(=O)Cc2ccccc2Cl)c1C#N	116%
O=C(CC1NC(=O)NC1=O)Nc1cccc2ccccc12 (stereo not given)	89%

Source: PubChem BioAssay (Southern Research Institute)
